KCNQ2 enhance = enhances the rat KCNQ2 potassium channel. O88943. CHO-K1 KCNQ2, FluxOR thallium flux fluorescence; hits give high values. B-score at 10 µM. 310,000 tested, 0.54% active;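 active means fluorescence ratio B-score at least 3 SD of library B-scores, with initial fluorescence B-score within 3 SD, cut at about 5.3 in these data; same plate scores as AID 2156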;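 further: B-score of peak minus minimum over baseline fluorescence ratio after K+ and Tl+ stimulus; positive B-score means potentiation of KCNQ2 with more thallium influx and brighter signal; only the inactives scoring about 0 or higher are listed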
Target sequence (O88943 whole entry, looked up): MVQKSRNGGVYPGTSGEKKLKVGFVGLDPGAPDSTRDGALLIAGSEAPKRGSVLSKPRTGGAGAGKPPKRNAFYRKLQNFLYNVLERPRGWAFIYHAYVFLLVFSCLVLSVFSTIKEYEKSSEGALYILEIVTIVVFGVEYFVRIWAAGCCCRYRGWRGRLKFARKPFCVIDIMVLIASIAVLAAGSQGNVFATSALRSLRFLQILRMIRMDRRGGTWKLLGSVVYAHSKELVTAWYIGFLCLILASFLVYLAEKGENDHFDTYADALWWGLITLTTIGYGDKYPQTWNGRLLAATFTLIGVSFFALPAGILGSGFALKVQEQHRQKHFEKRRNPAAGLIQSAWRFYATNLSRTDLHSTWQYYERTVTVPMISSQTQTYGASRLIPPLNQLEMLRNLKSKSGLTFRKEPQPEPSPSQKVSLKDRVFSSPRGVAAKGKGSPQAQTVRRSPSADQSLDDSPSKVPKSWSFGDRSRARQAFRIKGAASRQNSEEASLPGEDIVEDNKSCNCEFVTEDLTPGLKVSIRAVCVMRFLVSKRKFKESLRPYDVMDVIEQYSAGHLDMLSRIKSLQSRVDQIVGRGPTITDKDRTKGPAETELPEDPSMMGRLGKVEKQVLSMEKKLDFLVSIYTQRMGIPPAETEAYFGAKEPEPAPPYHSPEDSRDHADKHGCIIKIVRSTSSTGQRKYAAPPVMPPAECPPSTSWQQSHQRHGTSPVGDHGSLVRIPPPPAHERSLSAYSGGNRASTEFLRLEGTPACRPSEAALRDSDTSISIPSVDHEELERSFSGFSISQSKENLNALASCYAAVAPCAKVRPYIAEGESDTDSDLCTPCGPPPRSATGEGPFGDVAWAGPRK
KCNQ2 enhance baseline = second read-out of KCNQ2 enhance, no call of its own (marks repeat the call); B-score; compound at 10 µM; measured here: initial fluorescence intensity artifact check;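 brightness before thallium and not channel activity; 0 = typical well and far values either way flag optical interference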
Active calls of the source: *. These rows are one share of the data; rates above refer to the full screens.

SMILES	KCNQ2 enhance	KCNQ2 enhance baseline
CS(=O)(=O)c1ccc(NC(=O)CCN2C(=O)C3CCCCC3C2=O)cc1 (stereo unspecified)	0.17	-0.16
NC(=O)C1CCN(CCC(=O)Nc2ccc(Br)cc2)CC1	1.5	0.45
Cc1ccc(NC(=S)NC2CC3CCC(C2)N3Cc2ccco2)cc1C (stereo unspecified)	0.95	-0.82
COC(=O)c1ccc(N2CCOCC2)c(NC(=O)c2ccc3c(c2)OCCO3)c1	0.24	2.7
CC1c2nc3ccccc3n2C(CC(=O)NC2CC2)C(=O)N1Cc1ccccc1 (stereo unspecified)	0.82	2.1
CCOc1ccccc1NC(=O)C1CCCN(S(=O)(=O)c2cccc3cccnc23)C1 (stereo unspecified)	0.54	-1.3
COC(=O)CCc1c(C)c(C(=O)c2ccco2)c2ccccn12	0.34	-2.8
CCOc1ccc(N(CC(=O)NCc2ccco2)S(=O)(=O)c2ccc(OC)c(OC)c2)cc1	1.1	-0.02
C/C(=N\OC(=O)c1ccc(Cl)cc1)c1sc(-c2ccccc2)nc1C	1.4	2.4
C=CCNc1nc(SCC=C)nc2ccsc12	0.55	0.75
O=Cc1c(N2CCCCCC2)nc2ccccn2c1=O	2.3	-0.21
CCC(=O)N1CCC(C(N)=O)(N2CCCCC2)CC1	0.7	1.7
C/C=C/C=N/NC(=O)CN(c1ccc(Br)cc1)S(=O)(=O)c1ccccc1	1.5	-0.15
O=C(CC1CCCCC1)NCc1ccc(Cl)cc1	2.4	0.77
Cc1cc(NC(=O)Nc2cc(Cl)sc2Cl)no1	0.43	-0.19
COc1ccc(Cl)cc1CSc1n[nH]c(C)n1	0.67	-1.8
Cc1c(C(=O)NCc2ccc3c(c2)OCO3)sc2nc(-c3ccccc3)cn12	0.73	0.75
CCOc1ccc(Oc2cc(C)nc(SC)n2)nn1	1.4	-1.7
COc1ccc(CCNC(=O)c2sc(=S)n(C)c2N)cc1	1.2	0.5
CC(C)(C)NC(=O)CN(C(=O)CSc1nnc(COc2ccccc2)o1)c1cccc(F)c1	0.09	0.03
COC(=O)c1ccc(CSc2nnc3sc4ccccc4n23)o1	1.5	-0.96
O=C(CC12CC3CC(CC(C3)C1)C2)NC(=S)Nc1ccc(CN2CCOCC2)cc1	1.6	0.02
Cc1nc2ccccc2c(=O)n1NC(=O)c1ccc(Cl)cc1	1.8	0.25
COC(=O)c1ccc(NC(=O)Nc2ccccc2F)cc1	0.01	3.2
Cc1noc(C)c1COc1ccc(C(=O)Nc2ccccc2)cc1	1.4	0.1
Cc1ccc(C(=O)N2CCC(C(=O)NC3CCCC3)CC2)cc1	0.18	-1.9
Cc1ccccc1OCc1nc2ccccc2c(=O)n1N	0.48	0.17
CC(C)CC(=O)Nc1nc2ccc(S(=O)(=O)N3CCOCC3)cc2s1	0.42	0
CCC(=O)N1CCc2cc(OC)c(OC)cc2C1COc1ccccc1OC (stereo unspecified)	1.8	0.01
Cc1ccsc1CN(C)C(=O)CCc1nnc(COc2ccccc2)o1	0.57	-1.5
CCCn1c(=O)c2ccccc2n2c(SCC(=O)/C(C#N)=C(\C)N)nnc12	2.3	-0.96
CC(C)c1ccc(NC(=O)c2ccc(NC3=NC4CS(=O)(=O)CC4S3)cc2)cc1 (stereo unspecified)	1.1	-1.1
CC1CCc2sc(NC(=S)NC(=O)c3ccccc3)c(C#N)c2C1 (stereo unspecified)	0.84	1.9
COc1ccc(NC(=O)[C@H](C)NC(=O)C2CCN(S(=O)(=O)c3ccc(C)cc3)CC2)cc1	1.9	1.2
O=C(C1=NN[C@@H]2C(=O)N(c3cccc(C(F)(F)F)c3)C(=O)[C@H]12)c1cnccn1	0.42	-1.1
COC(=O)n1c(=O)oc2ccc(S(=O)(=O)N3CCCCC3)cc21	0.51	-3.9
COc1ccc(C(=O)Nc2ccc(NC(=O)C3CCCCC3)nc2)cc1	0.87	-1.2
O=c1c2ccccc2nc(-c2ccc(Cl)cc2Cl)n1O	0.93	-0.43
CCOC1=NN(c2ccccc2)C(=O)/C1=C\N(C)C	1	1.6
CCC(CC)NCCOC(=O)c1ccc([N+](=O)[O-])cc1	0.2	1.4
COCCn1c(N)c(C(=O)Nc2sc3c(c2C(=O)OC)CCCC3)c2nc3ccccc3nc21	0.64	-1.7
OC1CCN(C(=S)Nc2ccc(Oc3ccccc3)cc2)CC1	1.5	-0.43
COc1cc(C2=NC(CO)(CO)CO2)cc(OC)c1OC	0.34	4.6
CCn1c(CNc2ccc(Cl)cc2)nnc1SCC(=O)OC1CCCCC1	0.06	-0.17
O=C(NC1CCCC1)C1CCC(CNS(=O)(=O)c2cccs2)CC1 (stereo unspecified)	1.2	-0.02

Reformatted in markdown: 4 of the compounds above
| molecule | KCNQ2 enhance | KCNQ2 enhance baseline |
| --- | --- | --- |
| COC(=O)c1ccc(CSc2nnc3sc4ccccc4n23)o1 | 1.5 | -0.96 |
| COC(=O)c1ccc(N2CCOCC2)c(NC(=O)c2ccc3c(c2)OCCO3)c1 | 0.24 | 2.7 |
| Cc1nc2ccccc2c(=O)n1NC(=O)c1ccc(Cl)cc1 | 1.8 | 0.25 |
| CCCn1c(=O)c2ccccc2n2c(SCC(=O)/C(C#N)=C(\C)N)nnc12 | 2.3 | -0.96 |

New compounds follow
SMILES	KCNQ2 enhance	KCNQ2 enhance baseline
CN1CCN(C(=O)c2ccc(CNS(=O)(=O)c3ccc(F)c(Cl)c3)cc2)CC1	0.08	-0.13
CCOC(=O)c1ccc(NC(=O)CCOc2ccccc2)cc1	1.3	0.14
O=C1C2CC=CCC2C(=O)N1c1ccc(NCCc2cccc(F)c2)c([N+](=O)[O-])c1 (stereo unspecified)	1.6	1.2
CCOc1cc(N2CCOCC2)c(OCC)cc1NC(=O)c1ccc(OCc2c(C)noc2C)c(OC)c1	0.39	-0.02
O=C(Nc1ccccc1)N1C(=O)C2(OCCO2)c2ccccc21	0.54	-1.7
COc1ccnc(Oc2ccc(F)cc2)c1-c1ncn[nH]1	0.67	-0.78
COc1cccc2cc(C(=O)C3=C(O)C(=O)N(CCN4CCOCC4)C3c3ccc(C)o3)oc12 (stereo unspecified)	0.61	-1.9
CC(=O)Nc1nonc1NC(=O)COc1ccccc1	0.09	-0.93
Cc1cccc(NC(=O)Cc2coc3ccc4ccccc4c23)n1	3.1	-1.5
Cc1cccc(C(=O)NC(=S)NNC(=O)c2ccccc2Cl)c1	1.8	0.33
COc1ccccc1N1CC(C(=O)Nc2nnc(SCc3cccnc3)s2)CC1=O (stereo unspecified)	0.12	-1.9
Cc1cc(NC(=O)CCC2CCCCC2)no1	4.6	0.59
Cc1c(C(=O)O)oc2c1ccc1ccccc12	0.37	1.3
O=C(Nc1ccc(Cl)c([N+](=O)[O-])c1)c1ccncc1	2.1	0.55
O=C(CCC(=O)Nc1ccccc1)NNC(=O)c1ccco1	1.6	-2
CC1CCc2ccccc2N1C(=N)N(C)C (stereo unspecified)	1.7	-0.5
COc1ccc(CCNC(=O)CSc2nnc3c(n2)[nH]c2ccc(F)cc23)cc1OC	1.8	0.58
CCN(CC)c1nc2c3c(nc4c(c3c1C#N)CC(=O)N4c1ccc(Cl)cc1)NC(C)=N2	1.6	-1.2
CCCCNC(=O)c1onc(CSc2ccc(F)cc2)c1C(=O)O	4.3	0.48
CCCCCCC(=O)Nc1nc(C)c(-c2csc(Nc3ccc(Cl)cc3)n2)s1	1.3	0.01
O=C(Nc1ccc(S(=O)(=O)Nc2nccs2)cc1)c1cc(=O)[nH]c2ccccc12	0.24	1
N/C(=N\OC(=O)Cc1ccccc1)c1cccc(Br)c1	1.8	2
CC(C)(C)NC(=O)CC(CC(=O)O)c1ccccc1 (stereo unspecified)	0.18	-0.3
COC(=O)N/N=C/c1cc(Cl)c(OCc2ccccc2F)c(OC)c1	1.1	-0.2
Cc1ccc(Cl)cc1NC(=O)CCC(=O)Nc1cc(Cl)ccc1C	0.31	-0.01
O=c1c2ccccc2nnn1CSc1ccccc1	0.61	-2.5
O=C(CCCN1C(=O)c2ccccc2C1=O)NCC1CCCO1 (stereo unspecified)	0.07	0
C=CCSC1=C(C#N)C(c2ccccc2Cl)CC(=O)N1 (stereo unspecified)	2	-0.76
CN(C)S(=O)(=O)Nc1ccccc1C(N)=O	0.05	0.08
CCn1ccnc1CN(C)C(=O)c1cc(COc2ccc(-n3cncn3)cc2)on1	1.1	0.24

As entered above:
In KCNQ2 enhance, CN(C)S(=O)(=O)Nc1ccccc1C(N)=O reads 0.05
In KCNQ2 enhance, O=C(Nc1ccc(S(=O)(=O)Nc2nccs2)cc1)c1cc(=O)[nH]c2ccccc12 reads 0.24

Later entries
SMILES	KCNQ2 enhance	KCNQ2 enhance baseline
Cc1ccc(Nc2nc(N)nc(CSc3nnnn3-c3ccccc3)n2)cc1	0.11	0.98
Cc1ccc(C(=O)OCC(=O)NCc2cccs2)c(C)c1	0.03	0.12
Cc1ccsc1C(=O)OCC(=O)Nc1ccc(Cl)cc1C(F)(F)F	1.9	-1
Cc1nnc(SCC(=O)NC(=O)NC(C)(C)C)s1	0.19	-0.38
COCCN(C(=O)CSc1nc2ccc(C)cc2[nH]1)c1c(N)n(Cc2ccccc2)c(=O)[nH]c1=O	1.7	-0.07
Cc1ccc(C(=O)CCNc2ccccc2)o1	1.2	-2.2
Cc1ccc(Nc2ncnc3c2cnn3C)c(C)c1	1.1	0.71
O=C(CSc1nnc(CNC(=O)c2ccco2)o1)Nc1nc2ccccc2s1	0.37	0.16
CN(C(=O)C1CCOC1)c1nnc(-c2ccncc2)s1 (stereo unspecified)	0.02	-0.79
N#Cc1cn(CC(=O)NCC2CCCO2)c2ccccc12 (stereo unspecified)	0.87	0.79
COc1ccc(CN2CCC(C(=O)Nc3ccc(Oc4cccnc4)cc3)CC2)cc1	2	-1.4
O=C(CSC1=NC(=O)C(c2ccccc2)C(=O)N1)Nc1ccccc1[N+](=O)[O-] (stereo unspecified)	0.01	1.4
O=C(NN1CCOCC1)c1cc(Cl)ccc1Cl	0.26	0.72
Cc1ccccc1C(=O)NC1CCN(CC(=O)Nc2ccccc2Cl)CC1	1.5	-0.11
COc1ccc(N2CCN(C(=O)c3cn(CC4CCCCC4)nn3)CC2)cc1	1.1	-1.2

2 entries picked at random from the list so far, as already listed:
SMILES	KCNQ2 enhance	KCNQ2 enhance baseline
CN(C(=O)C1CCOC1)c1nnc(-c2ccncc2)s1 (stereo unspecified)	0.02	-0.79
O=C(CSc1nnc(CNC(=O)c2ccco2)o1)Nc1nc2ccccc2s1	0.37	0.16

One compound at a time, as listed above.
`Cc1ccc(Nc2nc(N)nc(CSc3nnnn3-c3ccccc3)n2)cc1` is listed as KCNQ2 enhance = 0.11; KCNQ2 enhance baseline = 0.98
`CN(C(=O)C1CCOC1)c1nnc(-c2ccncc2)s1` (stereo unspecified) is listed as KCNQ2 enhance = 0.02; KCNQ2 enhance baseline = -0.79

(cont.)
SMILES	KCNQ2 enhance	KCNQ2 enhance baseline
CC(C)Cc1ccc(C(C)C(N)=Nc2ccc(O)cc2)cc1 (stereo unspecified)	0.03	1.4
COc1ccc(-n2c(SCC(=O)Nc3ccccc3)nc(O)cc2=O)cc1	0.79	-0.84
C/C(=N\NC(=O)c1ccc(Cl)cc1)c1ccc(Br)s1	2.2	-0.73
CC(C)c1ccc(/C=N/NC(=O)c2cc(-c3cccc([N+](=O)[O-])c3)n[nH]2)cc1	0.24	2.3
CCOC(=O)c1c(NC(=O)CCC(=O)NCc2ccco2)sc2c1CCCC2	0.71	0.26
OCCN1CCN(c2ncnc3c2sc2nc(N4CCOCC4)c4c(c23)CCC4)CC1	5.2	-4.7
CCCCCOC(=O)C1=C(C)Nc2ncnn2C1c1cccs1 (stereo unspecified)	2	0.26
COc1cc(C2N(c3ccc(Cl)c(Cl)c3)C(=O)C3CCCN32)cc(OC)c1OC (stereo unspecified)	0.77	2.2
CN1CCc2c(sc(NC(=O)C3CCN(S(=O)(=O)c4cccs4)CC3)c2C(N)=O)C1	0.59	-2
CNn1cnc2ccsc2c1=O	1.1	-0.94
Cc1c(C)c(C)c(/C=[N+](/C)[O-])c(C)c1C	0.01	-0.15
Cc1ccc(S(=O)(=O)N2CCN(C(=O)CSc3nnnn3C)CC2)c(C)c1	0.92	0.19
Cc1cc(-c2nnc(SCC(=O)Nc3ccc(F)c(F)c3)n2N)n[nH]1	1.3	0.35
COc1cc2c(C(=O)N3CCCc4ccccc43)cn(C)c(=O)c2cc1OC	0.18	0.99
COc1cccc(NC(=S)N(CCCN2CCN(C)CC2)Cc2ccco2)c1	1.5	0.03
Cc1cc(OCC(=O)NC2CCN(Cc3ccccc3)CC2)c2c(C)cc(=O)oc2c1	0.25	0.01
Cc1cc(C)c(C#N)c(Oc2ccc(F)cc2)n1	0.49	0.61
CCOC(=O)c1ccc(-n2c(=O)[nH]c3ccccc3c2=O)cc1	0.01	-1.9
Cc1ccc(NC(=S)c2ccncc2)c(C)c1	1.5	-1.1
CC(=O)Oc1ccc(NC(=O)C2CCCCC2)c(C(=O)O)c1	1	-0.11
CCCOC(c1ccccc1)(c1ccccc1)C(Oc1nc(C)cc(C)n1)C(=O)O (stereo unspecified)	0.53	-1.8
CCOC(=O)Cc1nnn(CC(=O)OCC)n1	0.16	-0.78
O=C(CCC(=O)N/N=C/c1ccc(Br)o1)N/N=C/c1ccc(Br)o1	0.72	-0.6
N#C/C(C(=O)c1ccccc1)=C1/CCCCCN1	0.67	-1.2
CCn1cc(CN2CCC(n3nccc3NC(=O)CCc3ccccc3)CC2)cn1	0.46	2.1
CCOC(=O)c1ccc(NC=C2C(=O)OC3(CCCCC3)OC2=O)cc1	0.35	-0.12
CCCOc1ccc(OCCOCCN2CCc3ccccc3C2)cc1	0.21	-2.6
CCOc1ccccc1/C=N/NC(=O)CNC(=O)c1ccc(S(=O)(=O)N2CCOCC2)cc1	1.8	-0.02
O=C(O)c1ccccc1NS(=O)(=O)c1cccc(-n2sc3ccccc3c2=O)c1	13*	1.4*
